# Anthrax LT inh: inhibitors of anthrax lethal toxin internalization; Cells, anthrax lethal toxin internalization, FRET ratio (460/530); Potency, µM (doses to about 40 µM), without a hit: top-dose activity change, negative = inhibition, hits mostly inhibitors; 70,000 compounds, 0.67% hits; active = well fitted falling ratio curve with the 530 nm signal flat; inconclusive = other ratio curves, or a change in one channel alone; inactive = flat curves in the ratio and both channels; the % refers to the ratio; also: % is scaled to controls: 0 for no effect and ±100 for the full control effect; nearly all actives have a fitted effect of over 50% in size; tested in ME-180 cells; beta-lactamase reporter
# SmPrx2 inh: inhibitors of Schistosoma mansoni peroxiredoxin 2. Potency, µM. S. mansoni Prx2 activity coupled to TGR/GSH (TGR is thioredoxin glutathione reductase), NADPH fluorescence loss, qHTS; some inactives read as strong as hits. 65,000 compounds, 0.07% hits. AID 448; active means full or partial inhibition curve with a strong effect at the top dose; inconclusive means weaker partial or single-point curve; inactive means no accepted curve; also: series up to 57 µM; many of its hits are not listed in these tables
#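 Coupled assay in which S. mansoni TGR passes NADPH reducing equivalents via glutathione to Prx2, which reduces H2O2. Compounds were preincubated 15 min at room temperature with 25 nM TGR/50 nM Prx2 mix. Kinetic NADPH fluorescence loss (ex 365/em 450 nm) was monitored.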
# Numbers without * were called inactive; ? = inconclusive; . = not tested or not shown; & = joins results of further samples; [ ] = dose if it differs, or a comment. Potency is read from the fitted curve at half-maximal effect. The list is partial; rates above refer to the full screens.
# Order of values: Anthrax LT inh | SmPrx2 inh
- CCOC(=O)Cc1csc(NC(=O)CSc2nnc(-c3ccc(C)cc3)o2)n1
 : -1% | >57
- COCC(=O)N1CCC2(CCN(Cc3ccccc3)CC2)CC1
 : -3% | >57
- O=C(O)c1ccc(N2CCCC2=O)cc1
 : -7% | >57
- Cn1c(=O)oc2cc(S(=O)(=O)Nc3cccc4c3CCCC4)ccc21
 : -19% | >57
- Cc1cccc(N(CC(=O)NC2CCCCC2)C(=O)CCC(=O)Nc2ccccn2)c1
 : 12% | >57
- Cc1nc2ccccc2c(=O)n1NC(=O)c1c(O)c2c(n(CC(C)C)c1=O)CCCC2
 : ? | >57
- CC(OC(=O)CCc1nc2ccccc2c(=O)[nH]1)C(=O)NCc1ccc2c(c1)OCO2 (configuration not stated)
 : -8% | >57
- Cc1cccc(S(=O)(=O)Nc2nc3ccccc3nc2NCc2ccco2)c1
 : -18% | >57
- CC1=C(C(=O)OC2CCCCC2)C(c2ccc(C)o2)C2=C(CCCC2=O)N1 (configuration not stated)
 : -15% | .
- O=C(CCc1ccccc1)Nc1ncn[nH]1
 : 11% | >57
- O=C(NCc1ccccn1)c1ccc(NC(=O)c2ccco2)cc1
 : ? | >57
- COc1ccc(S(=O)(=O)N2CCN(Cc3ccccc3)CC2)cc1
 : 11% | >57
- CCN(CC)CCNCc1ccc(-c2ccc(Cl)cc2)o1
 : -1% | >57
- Cc1cc(NC(=O)c2ccc(S(=O)(=O)N3CCCC3)cc2)nc2c1c(=O)oc1ccccc12
 : -15% | >57
- O=[N+]([O-])c1ccc(Nc2nc3ccccc3s2)cc1
 : ? | >57
- Cc1cccc(CSC2=NCCN2C(=O)c2ccco2)c1
 : -12% | >57
- CCc1cc2cc(C(=O)N3CCN(Cc4ccccc4)CC3)sc2s1
 : 13µM* | .
- O=C(O)CCCCC(=O)O
 : ? | .
- CN(C)N=O
 : -6% | .
- COc1ccc(N(Cc2ccco2)C(=O)c2ccccc2F)cc1OC
 : -29% | .

# One compound at a time, from the list above. Order of screens: Anthrax LT inh	SmPrx2 inh
# COc1ccc(N(Cc2ccco2)C(=O)c2ccccc2F)cc1OC is entered as -29%	.
# CCOC(=O)Cc1csc(NC(=O)CSc2nnc(-c3ccc(C)cc3)o2)n1 is entered as -1%	>57

# Further structures follow:
# Order of values: Anthrax LT inh | SmPrx2 inh
- Cc1ccc(C(=O)NCc2occc2C(=O)O)o1
 : -5% | >57
- CCOc1ccc(NC(N)=O)cc1
 : 5% | >57
- O=C(CSc1nnnn1C1CCCCC1)NCc1ccco1
 : 20% | >57
- Cc1nc2ccc(S(=O)(=O)NC(C(=O)N3CCn4c3nc3ccccc34)C(C)C)cc2s1 (configuration not stated)
 : -9% | >57
- COC1=CC(=O)C[C@@H](C)[C@@]12Oc1c(Cl)c(OC)cc(OC)c1C2=O
 : -10% | >57
- Cc1[nH]n2c(=O)c3c(nc2c1-c1ccccc1)CCC3
 : . | >57
- O=c1cc(-c2cccc(O)c2)oc2cc(O)ccc12
 : 1% | >57
- CCOC(=O)C1=C(C)NC2=C(C(=O)CCC2)C1c1cccnc1 (configuration not stated)
 : ? | >57
- O=C(c1ccc(S(=O)(=O)N2CCOCC2)cc1)N1CCN(c2ccc(F)cc2)CC1
 : -29% | .
- COc1ccccc1NC(=O)CSc1nnc(Cc2ccccc2)o1
 : -1% | >57
- CCc1cccc(C)c1NC(=O)CCCC(=O)O
 : -9% | .
- CC1C2CC(C(S(=O)(=O)N3CCOCC3)C2=O)C1(C)C (configuration not stated)
 : 8% | >57
- Cc1ccc(S(=O)(=O)NCCN=C(CN2CCOCC2)NS(=O)(=O)c2ccc(C)cc2)cc1
 : 14% | >57
- Cc1cc(NC(=O)COc2cccc(C)c2C)no1
 : -11% | >57
- COc1ccccc1NC(=O)C1=C(C)Nc2ncnn2C1c1ccccc1C (configuration not stated)
 : -5% | >57
- O=C(c1csc(Nc2ccccc2Cl)n1)N1CCCC1
 : ? | >57
- COCCn1c(Cc2ccccc2)nnc1SCC(=O)NC(C)(C)C
 : -11% | >57
- CC1(C)N=C(N)N=C(N)N1c1cccc(OCc2cccc(N)c2)c1
 : -7%[8 µM] | >57
- O=C(O)CN1CCOCCOCCN(CC(=O)O)CCOCCOCC1
 : -6% | >57
- Cc1ccc(NC(=O)N(CCCN2CCOCC2)Cc2cc3cc4c(cc3[nH]c2=O)OCO4)cc1
 : -19% | >57
- Cc1ccc(-n2c(SCC(=O)Nc3cc(C)on3)nc3c(c2=O)SC(C)C3)cc1 (configuration not stated)
 : 21% | >57
- COc1ccc(-c2nnc(NC(=O)c3ccc(S(=O)(=O)N4CCc5ccccc5C4)cc3)o2)cc1
 : 5% | >57
- CCCC(CCC(=O)OC)(C(=O)OCC)c1csc(N)n1 (configuration not stated)
 : -1% | >57
- CCOC(=O)CSc1nnc(CNc2ccc(F)cc2)o1
 : 6% | >57
- Nc1nonc1C(=O)NCCNCc1cc(Br)ccc1OCc1ccccc1F
 : ? | >57
- Nc1c(Sc2ccccc2)c(=O)[nH]c(=O)n1Cc1ccccc1
 : 0% | >57
- CCOC(=O)c1ccccc1NC(=O)Cn1cnc2c(cnn2-c2ccccc2)c1=O
 : 4% | >57
- S=C1N[C@H](c2ccccc2)N[C@H](c2ccccc2)S1
 : 7%[8 µM] | >57
- COc1cc(NC(=O)CCc2ccccc2)c(C(=O)O)cc1OC
 : 13% | .
- CN(CC(=O)NC1CCCCC1)S(=O)(=O)c1cccc2nsnc12
 : 3% | >57
- C=CCNS(=O)(=O)c1sccc1/C=N/O
 : -10% | >57
- COC(=O)[C@@]1(Cc2ccccc2)[C@H]2c3cc(C(=O)N4CCCC4)n(Cc4ccc(O)c(OC)c4)c3C[C@H]2CN1C(=O)c1ccccc1
 : ? | >57
- CCOC(=O)c1c(NC(=O)CNCC(O)CO)sc(C)c1C (configuration not stated)
 : 1% | >57
- COc1ccc(OC)c(NC(=O)CN(c2ccc(C)cc2)S(=O)(=O)c2c(C)noc2C)c1
 : -11% | >57
- CN1C(=O)c2ccc(NC(=O)C3CCCCC3)cc2C1=O
 : . | >57
- COc1ccc(N2CCN(C(=O)Cn3nnc(-c4ccc(OC)c(OC)c4)n3)CC2)cc1
 : -6% | >57
- CCN1CCN(C(=O)Nc2ccc(Cc3ccc(NC(=O)N4CCN(CC)CC4)cc3)cc2)CC1
 : ? | >57
- CCOP(=O)(C#CC(C)(C)C)C(C)(O)c1ccccc1 (configuration not stated)
 : -9% | >57
- CC(C)N1C(=O)C2C(C(=O)NC3CCCCC3)C3C=CC2(O3)C1C(=O)NC1CCCCC1 (configuration not stated)
 : -11% | >57
- C/C=C/COC(=O)c1[nH]c2c(c1C)C(=O)CC(c1ccc(N(C)C)cc1)C2 (configuration not stated)
 : -2% | >57
- CCCn1c(=O)c(C(=O)Nc2cnccn2)c(O)c2ccccc21
 : -8% | >57
- O=C(CSc1nnc(CNC(=O)c2ccccc2F)o1)NCCc1ccccc1
 : 3% | >57
- O=S(=O)(c1ccccc1)N1C2CCC1CC(O)(c1cccnc1)C2 (configuration not stated)
 : 6% | >57
- O=C(NCCN1CCCC1)c1ccc(CS(=O)(=O)c2c(Cl)cccc2Cl)o1
 : -9% | >57
- COCc1nnc(NC(=O)C(C)C)s1
 : -15% | >57
- CCN(CC)Cc1c(C(=O)OC)nnn1-c1nonc1N
 : 9% | >57
- CCC(c1nnnn1C(C)(C)CC)N(CCCO)Cc1cc2cc(C)cc(C)c2[nH]c1=O (configuration not stated)
 : -13% | >57
- O=C(NCc1ccccc1)c1cccc(S(=O)(=O)N2CCOCC2)c1
 : 3% | >57
- O=C(Cn1ncc2c(=O)oc3ccccc3c21)N1CCCN(Cc2ccccc2F)C1
 : -13% | >57
- Cc1cc(C)n2cc(CSc3nnc(-c4ccccc4)o3)nc2n1
 : 4% | >57
- CC(=O)c1ccc([N+](=O)[O-])cc1
 : 1% | .
- Nc1nc(N)c2nn(-c3ccc(C(=O)O)cc3)nc2n1
 : -2%[8 µM] | >57
- CC(=O)c1cc(F)c(N2CCN(C(=O)Cc3ccccc3)CC2)cc1C
 : -6% | >57
- CN(C)c1oc(-c2ccccc2)nc1C#N
 : ? | >57
- CC(C)(C)NCc1cccn1-c1sc2c(c1C#N)CCCC2
 : 3% | >57
- O=C(Nc1ccc2c(c1)Cc1ccccc1-2)c1ccco1
 : ? | >57
- O=C(COC(=O)C1CC(=O)N(c2ccccc2)C1)c1ccccc1 (configuration not stated)
 : 5% | >57
- CSc1ccccc1-n1nnnc1SCC(=O)NCc1cccs1
 : -6% | >57
- O=c1[nH]cnc2scc(C3COc4ccccc4O3)c12 (configuration not stated)
 : -2% | >57
- COc1ccc2[nH]c(C(=O)O)c(CCC(=O)O)c2c1
 : -2% | >57

# Carrying on:
# Order of values: Anthrax LT inh | SmPrx2 inh
- CCC(c1nnnn1Cc1cccs1)N1CCN(c2nc3ccccc3s2)CC1 (configuration not stated)
 : 10µM* | >57
- Cc1ccc(Nc2ncc3c(n2)CC(c2ccco2)CC3=O)c(C)c1 (configuration not stated)
 : -23% | >57
- O=C(CN1CCN(C(=O)c2cccc(F)c2)CC1)Nc1ccccc1F
 : 0% | >57
- COCc1cc(=O)n2c([nH]c3ccccc32)c1C#N
 : 12% | >57
- O=C1C2C3C=CC(O3)C2C(=O)N1CC(O)c1ccccc1 (configuration not stated)
 : . | >57
- Cc1cc2n(n1)C(c1sccc1C)Nc1ccccc1-2 (configuration not stated)
 : -16% | >57
- CN1/C(=C\C(=O)COc2ccc3c(c2)OCO3)C(C)(C)c2ccccc21
 : ? | >57
- Cc1cccc(C)c1NC(=O)Nc1ccc(S(N)(=O)=O)cc1
 : -12%[8 µM] | >57
- Cc1nc2ccc(F)cc2cc1C(=O)NCc1ccco1
 : 4% | >57
- O=C1CCCC2=C1C(c1cn(-c3ccccc3)nc1-c1cccs1)c1c([nH]c(=O)[nH]c1=O)N2 (configuration not stated)
 : 22% | >57
- O=C(OCCN1CCCCC1)c1c[nH]c2ccccc12
 : ? | >57&>57
- CCCc1[nH]nc2c1C(C1CC=CCC1)C(C#N)=C(N)O2 (configuration not stated)
 : ? | .
- Cc1ccc(-c2cc(C(F)(F)F)c(C#N)c(SCCC#N)n2)o1
 : 19% | >57
- Cc1onc(-c2ccccc2Cl)c1-c1nc(-c2ccccn2)no1
 : . | >57
- N[C@H](CCl)C(=O)O
 : 0% | >57
- CCC(CC)C(=O)NCCc1ccc(OC)c(OC)c1
 : 1% | .
- Cc1ccc(NC(=O)CCNS(=O)(=O)c2ccc3c(c2)oc(=O)n3C)c(C)c1
 : 11% | >57
- O=C(CCN1CCCCC1)c1csc2ccccc12
 : -9%[8 µM] | >57
- CCOCCCNC(=O)c1c[nH]c2ccc(S(=O)(=O)Nc3cccc(OC)c3)cc2c1=O
 : 21% | >57
- C/C=C/CSc1nc2c(c(=O)[nH]c(=O)n2C)n1Cc1ccc(C)cc1
 : ? | >57
- Cc1nc(NCCCN2CCOCC2)c2oc3ccccc3c2n1
 : -8% | >57
- COc1ccc(N2CSC3=C(C#N)C(c4cc(OC)ccc4OC)CC(=O)N3C2)c(OC)c1 (configuration not stated)
 : ? | >57
- CCOC(=O)c1c(NC(=O)CSc2nnnn2-c2ccc3c(c2)OCO3)sc(C)c1C
 : -2% | >57
- Cc1ccc(S(=O)(=O)Nc2nc3ccc(S(C)(=O)=O)cc3s2)cc1
 : 1% | >57
- O=C(c1cc(C(F)(F)F)cc(C(F)(F)F)c1)N1CCC[C@@]2(CCN(c3ccccc3)C2)C1
 : -3% | >57
- COc1ccc(-c2cc3nc(C)c(CCC(=O)NCc4ccco4)c(C)n3n2)c(OC)c1
 : 3% | >57
- CCN1CCN(Cc2ccc(OC(F)(F)F)cc2)CC1
 : -20% | >57
- COC(=O)c1cc(Br)c(=O)n(CC(C)C)c1
 : . | >57
- COc1ccc(OC)c(S(=O)(=O)Nc2cnc3ccccc3c2)c1
 : ? | >57
- O=c1[nH]c(N2CCN(c3ccccc3)CC2)nc2c1CCC2
 : 5% | >57
- CCC(C)(C)n1nnnc1C(c1ccccc1OC)N1CCSCC1 (configuration not stated)
 : ? | >57
- COc1ccc(NS(=O)(=O)c2ccc(OCC(=O)N3CCCC3)cc2)cc1
 : -27% | >57
- Cc1ccccc1NC1C=CS(=O)(=O)C1 (configuration not stated)
 : 0% | >57
- Cc1ccc(S(=O)(=O)c2cc3c(=O)n4cccc(C)c4nc3n(Cc3ccco3)c2=N)cc1C
 : 5% | >57
- CSc1nnc(Cn2c(=O)sc3ccccc32)n1C
 : -12% | >57
- Cc1ccc(S(=O)(=O)N2CCC(C(=O)N[C@H](C(=O)NCc3ccco3)C(C)C)CC2)cc1
 : -4% | >57
- O=C(CN1C(=O)c2ccccc2C1=O)NCC1COc2ccccc2O1 (configuration not stated)
 : -10% | >57
- CC(C)CO/N=C1/C[C@@H](O)[C@@H](O)[C@@H]2[C@@H]3C(=O)N(Cc4ccccc4)C(=O)[C@H]3CC[C@H]12
 : 0%[8 µM] | .
- CN(C)CCNS(=O)(=O)N(C)C
 : ? | >57
- Cc1nc(CC(=O)N2CCN(S(=O)(=O)c3ccccc3C#N)CC2)cs1
 : 10% | >57
- Cc1cccc(N2CCN(C(=O)CS(=O)(=O)Cc3nc(-c4ccccc4F)oc3C)CC2C)c1 (configuration not stated)
 : ? | >57
- CO[C@@H](C(C)C)[C@@H](C)[C@@H]1OC(=O)C[C@@H]1O
 : -10%[8 µM] | .

# Looked up above.
# CCN(CC)Cc1c(C(=O)OC)nnn1-c1nonc1N in SmPrx2 inh = >57
# Cc1ccc(NC(=O)N(CCCN2CCOCC2)Cc2cc3cc4c(cc3[nH]c2=O)OCO4)cc1 in Anthrax LT inh = -19%
